HPGD inh: blocks human HPGD enzyme activity | Potency, µM, without a hit: at the top dose activity change, negative = inhibition, hits mostly inhibitors | purified HPGD, NADH fluorescence kinetic, PGE2 substrate | actives 4.3% (n = 150,000) | P15428; active = well fitted inhibition curve with a large enough effect (not every such curve was filed as active); inconclusive = small, poorly fitted or top-dose-only effect, or another doubt; inactive = no such curve, though single readings can be large or run the other way;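 further: top concentration of the series not given in the record; plate controls included wells without enzyme; inactives centre near -10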
Target sequence (P15428 whole entry, looked up): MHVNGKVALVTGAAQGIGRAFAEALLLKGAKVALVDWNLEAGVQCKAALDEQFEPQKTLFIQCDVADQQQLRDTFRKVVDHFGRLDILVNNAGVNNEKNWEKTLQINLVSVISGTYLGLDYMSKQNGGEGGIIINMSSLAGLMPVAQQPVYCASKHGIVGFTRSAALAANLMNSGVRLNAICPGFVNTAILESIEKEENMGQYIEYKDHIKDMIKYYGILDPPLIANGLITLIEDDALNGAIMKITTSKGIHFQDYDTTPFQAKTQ
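20 nM HPGD preincubated 15 min at room temperature with compound in 50 mM Tris-HCl pH 8, 0.01% Tween 20. Started with 1 mM NAD+ and 30 uM prostaglandin E2; NADH fluorescence (360/450 nm) read 5 times over 30-s intervals, last minus first.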
An asterisk follows results filed as active; ? = inconclusive; & = joins results of further samples. On the % scale 0 is the no-effect control and ±100 the full control effect; potency means the concentration at half of the fitted maximal effect.

HPGD inh | SMILES
-21% | Cc1ccccc1-n1nc(C)c2cc(C(=O)N3CCN(S(=O)(=O)c4ccc(Cl)cc4)CC3)sc21
-12% | O=C(Nc1ccc(F)cc1F)c1cc2ncc(CCCl)cn2n1
-11% | Oc1ccc(-c2[nH]nc(-c3ccccc3)c2-c2nc3ccccc3[nH]2)cc1
-7% | CN1CCCC2(CCN(C(=O)c3cccn3C)CC2)C1
-14% | O=C(NCCn1cc(SCC(=O)N2CCOCC2)c2ccccc21)c1ccccc1
-2% | CCC1=C2CC[C@H]3C(=O)N(c4ccccc4)C(=O)[C@H]3[C@H]2[C@@]2(Cc3ccccc3)C(=O)N(CC(=O)OC)C(=O)N2C1=O
-53% | COc1ccc(C(C#N)Nc2ccc(C)cc2)cc1 (stereo not drawn)
-3% | CN1CCN(P(=O)(c2ccccc2)c2nc3ccccc3s2)CC1 (stereo not drawn)
-7% | c1ccc(-c2cccc(-c3ccccn3)n2)nc1
-5% | CCOC(=O)C1=C(C)SC2=NS(=O)(=O)CCN21
-9% | O=C(Nc1ccc(F)cc1)C1CCC(N2C(=O)c3ccccc3C2=O)CC1 (stereo not drawn)
-8% | O=C(CN1C2=NCCCN2c2ccccc21)c1cccc(Br)c1
-8% | OCC1(c2cc(C(F)(F)F)n[nH]2)CCCCC1
? | CCc1ccc(NC(=O)N(CCN2CCOCC2)Cc2ccc3c(c2)CCCN3CC)cc1
-8% | Nn1c(SCC(=O)Nc2ccccc2)nnc1-c1cccnc1
? | CCCN1CCN(C(c2cc3cc4c(cc3[nH]c2=O)OCO4)c2nnnn2C(C)(C)C)CC1 (stereo not drawn)
-5% | O=c1cc(N2CCc3ccccc3C2)[nH]c(=O)n1-c1ccc(Br)cc1
-5% | CC(C)(C)c1ccc(OC(=O)Cn2c(C(F)(F)F)nc3ccccc32)cc1
-9% | O=C(C1CCCN(c2nnc(-n3cccc3)s2)C1)N1CCN(c2ccccc2)CC1 (stereo not drawn)
-17% | CCNS(=O)(=O)c1ccc(NC(=S)NCc2ccco2)cc1
-9% | CC(=O)Nc1ccc(/C=N/NC(=O)c2cccc(S(=O)(=O)N3CCOCC3)c2)cc1
-11% | COc1cc(/C=C/C(=O)O)cc(S(=O)(=O)Nc2ccccc2Cl)c1OC
-11% | CCn1c(CNc2ccc(C)cc2)nnc1SCC(N)=O
? | Cc1cccc(-c2nnc(-c3ccc(N)cc3)o2)c1
22µM* | N#Cc1c(/N=C/C=C/c2ccccc2)sc2c1CCCC2
-7% | O=C(O)[C@H]1CCCC[C@@H]1C(=O)Nc1nc2ccccc2[nH]1
-8% | COC(=O)c1noc(-c2ccc(C)cc2)n1
-7% | CC(C)n1c(NCCc2ccccc2)nc2c1c(=O)n(C)c(=O)n2C
-16% | Cc1ccc(NC(=O)COC(=O)CNC(=O)c2ccc(Br)cc2)c(C)c1
-5% | CCOC(=O)N1CCN(C(=O)C2CCN(S(=O)(=O)c3ccc(C)cc3)CC2)CC1
-3% | O=C(Oc1cc(=O)oc2ccccc12)c1ccco1
-12% | COC(=O)NCCOc1cc(C)ccc1C
-14% | COc1ccc(Cc2nnc(NC(=O)C3CCCO3)s2)cc1OC (stereo not drawn)
-17% | CCSc1ncc(Cl)c(C(=O)Nc2ccc(S(=O)(=O)Nc3onc(C)c3C)cc2)n1
-17% | O=C(CSc1nnc(-c2ccncc2)n1-c1ccc(F)cc1)NC(=O)NCc1ccco1
-13% | Cc1c(CCO)c(=O)n(-c2ccccc2)n1S(=O)(=O)c1c(Cl)cc(Cl)cc1Cl
-7% | CCOc1ccccc1NC(=O)CCC(=O)O
-2% | CC(C)N(Cc1ccccc1)S(=O)(=O)N(C)C
-6% | ONC(=Nc1ccccc1)c1ccc(Cl)cc1
-2% | CCC(C)(C)n1nnnc1CN1CCSCC1
-16% | Cc1cc(Nc2ccc(C)c(F)c2)n2ncnc2n1
0% | CN(CCCNC(=O)Cn1cc2c(n1)CCCC2)C1CCCCC1
? | O=C(NCCc1ccccc1)c1ccc(-c2ccccc2C(F)(F)F)o1
-7% | O=C(CSc1nnc(Cc2ccccc2)n1-c1ccccc1)N1CCOCC1
-8% | O=C(Oc1cc(OC(=O)c2ccccc2)c2c(c1)OC(c1ccc(OC(=O)c3ccccc3)c(OC(=O)c3ccccc3)c1)[C@@H](OC(=O)c1ccccc1)C2)c1ccccc1 (stereo partly drawn)
-9% | Cc1ccc2c(C)nc(SC(C(=O)c3ccccc3)c3ccccc3)nc2c1 (stereo not drawn)
-3% | Cc1n[nH]c(C)c1-c1nc2ccccc2[nH]1
? | C=C(C)COc1ccc2c(C)c(CC(=O)OC)c(=O)oc2c1C
-3% | CC(C)=CC1C(C(=O)Nc2ccc(Br)cn2)C1(C)C (stereo not drawn)
-5% | C/C(=N\O)C(C)NC(=O)c1ccccc1 (stereo not drawn)

Next structures follow:
HPGD inh | SMILES
-10% | Cc1ccc(C(=O)N/N=C(/CC(=O)c2cccs2)C(F)(F)F)cc1
-8% | CCOC(=O)C1=C(C)N(CCCC(=O)O)C(=O)NC1c1ccc(OC)cc1 (stereo not drawn)
-6% | COc1ccc(CCNC(=O)CSc2cn(Cc3ccccc3)c3ccccc23)cc1OC
-3% | CCOc1ccccc1-n1c(SCC(=O)N(C(C)C)C(C)C)nnc1-c1cccnc1
-19% | O=C(/C=C/c1cccc([N+](=O)[O-])c1)NCCc1ccc(F)cc1
-22% | CCN(CC)C(=O)CSc1nc2nc(C)cc(C)c2c(=O)[nH]1
? | CCCCc1ccc(Nc2ncnc3nc[nH]c23)cc1
-4% | COc1ccc(C(=O)NCC(=O)OCc2cccc(Br)c2)cc1
-2% | CC(=O)Nc1ccc(OC(=O)c2cc3cc(Br)cc(Br)c3oc2=O)cc1
-10% | OCCOCCn1c(-c2ccccc2)nc(=S)c2c1CCCC2
? | N#Cc1ccccc1OCC(=O)Nc1c(C(=O)C2CC2)oc2ccccc12
-5% | COc1ccc(NC(=O)COC(=O)/C=C/c2ccccc2[N+](=O)[O-])cc1
0% | COc1ccc(N2C(=O)CC(NC34CC5CC(CC(C5)C3)C4)C2=O)c(OC)c1 (stereo not drawn)
-9% | C=CCn1c(-c2ccc(OC)c(OC)c2)cs/c1=N\c1ccccn1
-19% | Cc1cc(Cl)c(S(=O)(=O)N2CCN(c3ccc(F)cc3)CC2)cc1OCC(=O)NC1CCCCC1
-13% | COc1cc(CC(=O)OCC(=O)Nc2ccc3c(c2)OCCO3)cc(OC)c1OC
-1% | COCCCNCCCCOc1ccc(C)cc1[N+](=O)[O-]
-11% | O=C(O)c1[nH]c2ccccc2c1CC(=O)N1CCOCC1
-16% | Cc1ccn2c(C(=O)N/N=C/c3ccc(CNC(=O)C(=O)Nc4ccc(C)c(C)c4)o3)c(C)nc2c1
-15% | CC(C)NC(=O)CN1CCN(c2ncccn2)CC1
? | CCCCn1c(SCC(=O)Nc2cc(C)on2)nc2ccccc2c1=O
1% | COc1ccc(C2(CNC(=O)c3ccc(OC)c([N+](=O)[O-])c3)CCCCC2)cc1OC
-15% | COc1ccc(Cn2nnnc2C(c2ccc(N(C)C)cc2)N2CCC(C)CC2)cc1 (stereo not drawn)
? | CC(C)c1cc(=O)oc2c3c4c(cc12)CCCN4CCC3
-23% | COc1ccccc1N1CCN(C(=O)CSc2ncccc2-c2nc3ccccc3[nH]2)CC1
-8% | O=C(Nc1cccc(F)c1)N1CC2(CCN(C(=O)c3cnccn3)CC2)C1
-2% | CC(NC(=O)c1cccc(C(F)(F)F)c1)C1CCCO1 (stereo not drawn)
-7% | NC(C(=O)O)C1CC(Cl)=NO1 (stereo not drawn)
? | CC(C)c1onc(C(=O)N2CCCCC2C)c1[N+](=O)[O-] (stereo not drawn)
-4% | CC(C)Oc1ccc(C2CC(=O)N(c3ccc(N(C)C)cc3)C2=O)cc1 (stereo not drawn)
-10% | O=C(Cc1ccc(Br)cc1)N1CCN(c2ccc(F)cc2)CC1
-7% | O=S(=O)(NCCCc1ccccc1)c1cccc2nsnc12
-17% | O=C(NCc1cc(C(F)(F)F)cc(C(F)(F)F)c1)C12CN(Cc3ccccc3)CC1C(c1cccc([N+](=O)[O-])c1)=NO2 (stereo not drawn)
-3% | Cc1cc(C(=O)N2CCCc3ccccc32)no1
-20% | Cc1cc(/C=N/n2cnnc2)c(C)n1-c1cccc(Cl)c1
-2% | CC1(C)CC(=O)CC(=NCC(=O)O)C1
-5% | O=C(C1CCN(S(=O)(=O)c2cccc3cccnc23)CC1)N1CCN(c2ccc(Cl)cc2)CC1
-11% | CC(C)NC(=O)c1cc2cc([N+](=O)[O-])ccc2s1
-7% | O=C1CCc2cc(S(=O)(=O)NC(Cc3ccccc3)C(=O)NCC3CCCO3)ccc2N1 (stereo not drawn)
-14% | CC1(C)Cc2c(cnn2-c2ccccc2)C(=O)/C1=N\NC(=O)c1ccccc1N
-10% | CCN1CCN(C(c2cccs2)C(C)NC(=O)C(C)C)CC1 (stereo not drawn)
-15% | Cc1ccccc1C(=O)Nc1cccc(N)c1
-9% | COC(=O)[C@@H](NC(=O)O[C@@H]1C(=O)c2ccc(OC)cc2O[C@H]1c1ccc2c(c1)OCO2)C(C)C
-9% | CCN1C(=O)C2(SC(NC(C)=O)=NN2C(C)=O)c2cc(C)cc(C)c21 (stereo not drawn)
16µM* | Cc1nn2c([nH]c(=O)c3ccccc32)c1C=O
-13% | O=C(N/C(=C/c1cccs1)C(=O)N1CCCCCC1)c1ccccc1
3% | CCC(=O)Nc1ccc(C(=O)NNC(=O)Cc2ccccc2)cc1
-7% | O=S(=O)(c1cccc(S(=O)(=O)N2CCC(Cc3ccccc3)CC2)c1)N1CCOCC1
14µM* | CS(=O)(=O)Nc1ccc(C(=O)N2CCCCC2)cc1
-4% | Cc1cccc(CCNS(=O)(=O)c2ccc(S(=O)(=O)N3CCCCC3)cc2)c1

Other compounds:
HPGD inh | SMILES
-3% | O=[N+]([O-])c1ccc(N/N=C/c2c[nH]c3ccccc23)cc1
-11% | Cn1cccc1C(=O)N1CCC2(CCCN(C(c3ccccc3)c3ccccc3)C2)CC1
-13% | COCCN(C(=O)COc1ccccc1)c1nnc(-c2cccnc2)s1
-3%&-12% | CCCCCCCCNC(C)C(O)c1ccc(SC(C)C)cc1 (stereo not drawn)
4.5µM* | O=C(/C=C/c1ccccc1[N+](=O)[O-])NCC1CCCO1 (stereo not drawn)
-14% | COCCNC(=S)N/N=C/c1ccccc1C(=O)O
-10% | O=C1CN(C(=O)c2cc3ccccc3o2)c2ccccc2N1
-9% | O=C1CCC(C(=O)NCc2cccnc2)N1 (stereo not drawn)
-6% | CCOC(=O)C1CCN(C2CC(=O)N(c3cccc(Cl)c3)C2=O)CC1 (stereo not drawn)
-11% | N#Cc1cnn(-c2ccccc2)c1N
? | CCOCCCNC(=S)Nc1ccc2nc(N3CCCC3)cc(C)c2c1
-3% | C/C=C/C(=O)Nc1nnc(C(C)C)s1
-8% | O=C(O)c1c(F)c(F)c(F)c(F)c1-c1ccc(Cl)cc1
0% | O=C(OCC(=O)N1CCCc2ccccc21)C1CCN(S(=O)(=O)c2cccs2)CC1
-1% | CCOc1ccc(OCC)c(NC(=O)C2CCN(S(=O)(=O)c3cccnc3)CC2)c1
-16% | COc1cccc(-c2cc(C(=O)Nc3cc(C)nn3-c3ccccc3)no2)c1
? | COc1cccc(C2=CC(c3ccccc3)n3ncnc3N2)c1 (stereo not drawn)
-26% | Cc1sc2nc(SCC(=O)C(C)(C)C)n(Cc3ccco3)c(=O)c2c1C
-6% | COc1ccc(C(=O)N2CCCN(C)CC2)cc1S(=O)(=O)N1CCCc2ccccc21
-11% | O=S(=O)(c1ccc(N2CC=C(c3ccccc3)CC2)nc1)N1CCCC1
-9% | Cc1ccc(S(=O)(=O)O[C@H]2CC(C(C)(C)C)CC[C@@H]2c2ccccc2)cc1 (stereo partly drawn)
-2% | Cc1nc2ccc(Cl)cc2c(-c2ccccc2Cl)c1CC(=O)O
-27% | O=Nc1ccc(NOC(=O)c2ccccc2)cc1
-12% | Cn1c(=O)c2c(ncn2CC(=O)N/N=C/C(Br)=C/c2ccccc2)n(C)c1=O
-5% | CC1=C(/C=C/C(=O)O)C(C)(C)CCC1
0% | CC1CCN(S(=O)(=O)c2ccccc2[N+](=O)[O-])CC1
-12% | CC1(C)C(=O)OC(c2ccco2)C(C)(C)C1=O (stereo not drawn)

Screens (PubChem)

A portion of the library. The share of hits here may be higher or lower than overall.
